HCMV UL50-53 inh: cytomegalovirus nuclear egress complex inhibition; HTRF UL50-UL53 interaction, normalized percent inhibition; inhibition, % (concentration not given with the values); hit rate 0.15% among 190,000;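 active = both replicates at 50% or more, plus weaker picks with an unusually low signal ratio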;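 also: stock transfer was 100 nL into about 20 µL; 0% = negative control wells and 100% = wells with untagged competitor protein; inactives centre near -12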
GIV Gai3 FP: blocks GIV peptide binding to rat Galpha-i3 | P08753 | Galpha-i3/FITC-GIV peptide fluorescence polarization, 90 min; stronger effect = lower value; scaled: aluminum fluoride 0%, vehicle 100% | percent of control (FP), % (concentration not given with the values) | hit rate 0.42% among 210,000 | AID 1224905;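 active = replicate mean at 85% of control or lower, very high polarization wells dropped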;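 also: wells of about 15 µL received 100 nL stock; the first replicate is given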
Target sequence (P08753 whole entry, looked up): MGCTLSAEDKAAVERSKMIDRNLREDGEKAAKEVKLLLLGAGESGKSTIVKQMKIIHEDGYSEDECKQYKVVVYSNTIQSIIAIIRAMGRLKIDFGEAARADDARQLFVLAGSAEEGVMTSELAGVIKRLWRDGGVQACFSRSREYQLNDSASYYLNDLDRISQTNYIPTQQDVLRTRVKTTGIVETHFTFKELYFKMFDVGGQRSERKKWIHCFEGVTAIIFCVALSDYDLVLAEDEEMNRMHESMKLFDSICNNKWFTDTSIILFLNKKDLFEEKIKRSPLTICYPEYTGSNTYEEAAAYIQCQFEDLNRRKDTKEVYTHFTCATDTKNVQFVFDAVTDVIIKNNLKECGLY
Sa growth 42C: S. aureus growth inhibition; relative growth, % (test concentration not listed); hit rate 0.53% among 170,000; S. aureus RN4220 growth, OD600, 20 h, 42 °C; stronger effect = lower value; AID 720641;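 active = growth at 42 °C up to 50% and 20 or more points under that at 30 °C, or under 10% at both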;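 also: 300 nL library stock went into each well; scaled to the means of positive and negative controls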
Sa growth 42C second temp: also measured in Sa growth 42C; calls as there; relative growth, %; measured here: growth at 30 °C;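 optical density after 20 h as mean of two plates; 100% = untreated growth and lower means inhibition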
Starred values were filed as active, the others as inactive; nt = no result given; & = joins results of further samples.

Structure | HCMV UL50-53 inh | GIV Gai3 FP | Sa growth 42C | Sa growth 42C second temp
Cc1ccc(F)cc1NC(=O)Cn1c2ccccc2c(=O)c2cc(Cl)ccc21 | -2 | 98 | nt | nt
CCOC(=O)c1c(NC(=O)CSc2cn(CCNC(=O)c3ccc(OC)cc3)c3ccccc23)sc2c1CCC2 | -33 | 102 | 97 | 85
COCCn1c(SCC(=O)Nc2ccc3c(c2)OCO3)nnc1-c1c[nH]c2ccccc12 | 1 | 101 | 83 | 84
N#CCOC(=O)/C(=C\c1cccs1)c1cccs1 | -59 | nt | 108 | 90
O=C(O)/C=C/C(=O)Nc1ccc(C(F)(F)F)cc1 | 11 | 98 | 90 | 99
Cc1ccccc1C(=O)Nc1ccc(NC(=O)c2cccs2)cc1 | -4 | 105 | 111 | 75
CNc1ccccc1C(=O)OCC(=O)c1cccs1 | -9 | nt | 105 | 91
CCOC(=O)c1c(/C=C/N(C)C)oc2ccc(O)cc12 | -4 | 131 | 106 | 104
Cc1ccc(Cn2c(C(=O)O)c(CNCc3ccc(OC(C)C)cc3)c3ccc(C)cc32)cc1 | nt | 106 | 109 | 74
FC(F)(F)c1cccc(NCCNc2nccc(C(F)(F)F)n2)n1 | -23 | 104 | 90 | 90
O=C(NC1CCCC1)C1CCN(c2ccc(-c3ccccc3)nn2)CC1 | -25 | 105 | nt | nt
OCC1OC(Oc2cccc(O)c2CCCc2ccc(O)cc2)C(O)C(O)C1O (centres undefined) | -17 | nt | 107 | 90
CCOc1ccc(N2C(=O)c3n[nH]c(-c4cccs4)c3C2c2cccc(F)c2)cc1 (centres undefined) | -9 | 107 | 88 | 65
O=C(NCCc1csc2nc(-c3ccccc3F)nn12)C(=O)Nc1cc(F)ccc1F | nt | 106 | 93 | 90
Cc1cccc(CCn2c(=O)c3ccccc3n(CC(=O)Nc3ccccc3F)c2=O)c1 | -5 | 106 | 90 | 85
CC1CCCCC1NC(=O)c1cccc(N2CCCC2=O)c1 (centres undefined) | -3 | 94 | 119 | 95
CC(=O)Nc1ccc(S(=O)(=O)N(C)c2ccc(OCC(=O)OCC(=O)N3CCCCC3)cc2)cc1 | -3 | nt | 85 | 109
CCOC(=O)Cc1n[nH]c(=S)n1C1CCCCC1 | 11 | nt | 119 | 96
CCOC(=O)CC(NC(=O)Cn1nnc(-c2ccc(C(F)(F)F)cc2)n1)c1ccccc1Cl (centres undefined) | 7 | 100 | 89 | 87
O=C(Nc1cccc(-c2nc(-c3ccccc3)no2)c1)c1ccc(F)cc1 | -3 | 108 | nt | nt
COC(=O)c1cc(S(=O)(=O)N(C)CC(=O)NCc2ccc(Cl)cc2)cn1C | -21 | 105 | nt | nt
COCCCNS(=O)(=O)c1ccc2c(c1)CCN2C(=O)CCC(=O)O | -20 | 95 | nt | nt
CCN(CC)c1ccc(NC(=O)c2ccc(Cl)cc2)cc1 | 2 | 102 | 121 | 95
CC(Sc1nnc(N)s1)C(=O)Nc1ccc(N2CCOCC2)cc1 (centres undefined) | -16 | nt | 76 | 86
CNc1ccc(-c2c(C#N)c(C#N)c(N)n2-c2ccc(C)cc2)cc1 | -25 | nt | 99 | 90
O=C(NC1CCCCCC1)C1c2ccccc2C(=O)N1Cc1ccccc1Cl (centres undefined) | -6 | 101 | 110 | 88
CCCn1cnc2nc(CSc3ccccc3NC(=O)c3ccccc3Cl)cc(=O)n21 | -11 | 102 | nt | nt
COC(=O)CCC(=O)Nc1ccc(Oc2ccccc2)cc1 | -15 | 103 | 103 | 85
Cc1ccc(S(=O)(=O)Cn2nnnc2CN2CCC(Cc3ccccc3)CC2)cc1 | 4 | 102 | 99 | 99
Cc1ccc(S(=O)(=O)NCC2CCC(C(=O)NCCc3ccccc3)CC2)cc1 (centres undefined) | nt | 113 | 83 | 94
COC(=O)c1sccc1NC(=O)c1cc(-c2ccccn2)nc2ccccc12 | -18 | 106 | nt | nt
Cc1cc(=O)[nH]c2[nH]n(-c3ccccc3)c(=O)c12 | -2 | nt | 84 | 84
N#CC1(NC(=O)CN2CCCCC2c2nc3ccccc3s2)CCCC1 (centres undefined) | -25 | nt | 80 | 80
CCN1C(=O)/C(=C2/Sc3ccc(OC)cc3N2CC)SC1=Nc1ccc2c(c1)OCCO2 | -6 | 90 | 90 | 101
CCS(=O)(=O)c1ccc2oc(SCC(=O)N3CC(C)OC(C)C3)nc2c1 (centres undefined) | -28 | nt | 102 | 93
CC(C)NC(=O)c1ccccc1N(Cc1ccccc1)S(C)(=O)=O | -18 | 96 | 100 | 91
COCCCNC(=O)c1cn(CCOC)c(=O)c2c1c1ccccc1n2C | -11 | 106 | 103 | 93
CC(C)c1ccc(CNC(=O)c2ccc(N3CCCC3)c(NC(=O)NCc3ccc(F)cc3)c2)cc1 | nt | 96 | 80 | 88
Cc1cccc(CCNS(=O)(=O)c2ccc3c(c2)CCN3C(=O)C2CCC2)c1 | nt | 94 | 108 | 87
CC(=O)Nc1ccc(C(=O)COc2ccccc2O)cc1 | -6 | nt | 123 | 95
O=C1CC2(CCCC2)C(=O)N1c1cc(C(F)(F)F)cc(C(F)(F)F)c1 | 14 | 100 | 99 | 92
Cn1c(CN(c2ccc(F)cc2)S(C)(=O)=O)nnc1SCC(=O)N1CCOCC1 | -30 | 106 | nt | nt
CNC(=O)c1ccc(Nc2nnc(-c3ccc(C)c(S(=O)(=O)N4CCCCC4)c3)c3ccccc23)cc1 | -12 | 104 | 102 | 93
COC(=O)c1cccc(Oc2ncnc3c2oc2ccccc23)c1 | -22 | nt | 82 | 82
CCC1=NN(C(=O)c2cccc(C)c2O)C(O)(c2ccc(Br)cc2)C1 (centres undefined) | -31 | 103 | nt | nt

A second format for some results above:
> Cc1ccc(Cn2c(C(=O)O)c(CNCc3ccc(OC(C)C)cc3)c3ccc(C)cc32)cc1
  HCMV UL50-53 inh = nt; GIV Gai3 FP = 106; Sa growth 42C = 109; Sa growth 42C second temp = 74

> FC(F)(F)c1cccc(NCCNc2nccc(C(F)(F)F)n2)n1
  HCMV UL50-53 inh = -23; GIV Gai3 FP = 104; Sa growth 42C = 90; Sa growth 42C second temp = 90

> O=C(NC1CCCC1)C1CCN(c2ccc(-c3ccccc3)nn2)CC1
  HCMV UL50-53 inh = -25; GIV Gai3 FP = 105; Sa growth 42C = nt; Sa growth 42C second temp = nt

> OCC1OC(Oc2cccc(O)c2CCCc2ccc(O)cc2)C(O)C(O)C1O (centres undefined)
  HCMV UL50-53 inh = -17; GIV Gai3 FP = nt; Sa growth 42C = 107; Sa growth 42C second temp = 90

(continued)
Structure | HCMV UL50-53 inh | GIV Gai3 FP | Sa growth 42C | Sa growth 42C second temp
Cc1ccc(-c2onc(C)c2C)cc1S(=O)(=O)N1CCc2ccccc2C1 | -18 | 101 | nt | nt
CCNC(=O)CC1C(=O)N(c2ccccc2)C(=O)N1CCOC (centres undefined) | nt | 102 | 95 | 89
COc1cc(NC(=O)CC2C(=O)OCCN2Cc2ccccc2)cc(OC)c1 (centres undefined) | 16 | 105 | 85 | 94
O=C(Cn1nc(-c2ccc(F)cc2)oc1=O)OCc1nnc(-c2cc3c(s2)CCCC3)o1 | -13 | nt | 79 | 94
COC(=O)c1ccc(CSc2nc3ccc(C)cc3[nH]2)o1 | -13 | nt | 95 | 90
CCOc1ccc(CC(=O)NCC(c2ccc(OC)cc2)N2CCOCC2)cc1 (centres undefined) | -10 | nt | 78 | 94
CC1(C)CC(=O)C=C(NCC2NCCc3ccccc32)C1 (centres undefined) | 5 | nt | 104 | 99
CSc1ccc(/C=C/C(=O)Nc2ccc(-n3cnnn3)cc2)cc1 | -18 | nt | 112 | 100
Cc1ccc(C)c(NC(=O)Cn2c(=O)n(Cc3cccs3)c(=O)c3cccnc32)c1 | -28 | 104 | 122 | 72
Cn1c2ccccc2c2cnn(CC(=O)NCCCN3CCN(c4ccccc4F)CC3)c(=O)c21 | -25 | 103 | 108 | 85
O=C(c1ccc2c(c1)N(Cc1ccc(Cl)cc1)C(=O)c1ccccc1S2(=O)=O)N1CCCC1 | -24 | 103 | 84 | 60
CCn1nnc2cc(C(=O)Nc3cccc(Cl)c3)ccc21 | nt | 102 | 99 | 85
CCOc1ccc(NC(=O)CCc2c(C)nc3nc(C)nn3c2C)cc1 | -16 | 101 | 110 | 94
Cc1ccc(NC(=O)Cn2nc(-c3ccc(F)cc3)c3cnc4ccc(C)cc4c32)cc1 | nt | 100 | 110 | 97
CCN1CCN(C/C=C/c2ccccc2)CC1 | -7 | 95 | 101 | 99
Cc1cc(C)c2c(CC(=O)Nc3c(C(=O)Nc4cccc(Cl)c4)oc4ccccc34)coc2c1 | nt | 100 | 109 | 91
O=C(NCc1ccc(Cl)cc1)c1cc(S(=O)(=O)N2CCCCC2)c[nH]1 | nt | 109 | 77 | 79
COc1ccc(C2c3sc(=O)[nH]c3SC3C(=O)N(c4ccccc4)C(=O)C32)cc1 (centres undefined) | -25 | 112 | 81 | 66
Cc1cc(C)cc(C(=O)Nc2ccc3[nH]c(=O)[nH]c3c2)c1 | -8 | 104 | 136 | 90
COc1ccc(OC)c(-c2csc(-c3nnn(-c4cccc(Cl)c4)c3N)n2)c1 | -16 | 112 | nt | nt
CCOC(=O)c1cccc(NC(=O)CC(c2cc(OC)c(OC)c(OC)c2)N2Cc3ccccc3C2=O)c1 (centres undefined) | nt | 106 | 144 | 95
Cc1sc2c(c1C)C(=O)/C(=C\Nc1cccnc1)S(=O)(=O)N2C | -3 | 102 | 89 | 81
O=C(CCCc1nc(-c2ccc(Cl)cc2)no1)NCc1ccco1 | -25 | 95 | 101 | 89
Cc1ccc(OCc2nnc(SCc3cccc(C#N)c3)n2N)cc1C | -1 | 100 | 110 | 93
COc1ccccc1N1CCN(C(=O)c2cc(S(=O)(=O)N3CCC(C)CC3)cn2C)CC1 | nt | 102 | 100 | 98
CCN(Cc1ccccc1)C(=O)CSc1nncn2c1cc1occc12 | nt | 113 | 104 | 76
Cn1c(CSCC(=O)Nc2ccccc2)nnc1SCC(=O)c1ccccc1 | -32 | 104 | 92 | 78
O=C(Nc1ccccc1C(F)(F)F)c1ccco1 | -4 | 99 | 104 | 96
COc1ccc(S(=O)(=O)N(C)Cc2ccc(OC)cc2OC)cc1 | -11 | nt | 100 | 100
Cc1ccc(NC(=O)CSc2nnc(-c3cc4occc4n3C)n2-c2ccccc2C)cc1F | nt | 107 | 107 | 94
CCN(CCCNC(=O)CN1N=C(c2ccccc2)CCC1=O)c1cccc(C)c1 | nt | 104 | 120 | 99
COc1cc(-c2noc(-c3ccc(NC4CCCCC4)c([N+](=O)[O-])c3)n2)cc(OC)c1OC | -32 | 92 | 109 | 84
COc1cccc(Cn2nnc(C(=O)O)c2C(=O)O)c1 | -12 | 105 | nt | nt
COc1cccc2cc(-c3nc4sc(C(=O)Nc5cccc(F)c5)c(C)c4c(=O)[nH]3)c(=O)oc12 | nt | 111 | 99 | 82
O=c1[nH]c(SCc2ccccc2)nc2[nH]ncc12 | -19 | 104 | 104 | 101
Nc1cccc2c1C(=O)N(CC(=O)O)C2=O | -41 | 81* | 61 | 104
Cc1cc(C(=O)NCc2ccccc2)no1 | -6 | 98 | 98 | 84
COC(=O)c1ccc(COc2ccc3c(oc(=O)c4cc(OC)ccc43)c2C)o1 | -8 | 98 | 107 | 92
O=C(O)c1cc(-c2ccccc2)nc2nc(N3CCCCC3)sc12 | -31 | nt | 107 | 92
CCOC(=O)C1CCCN(C(=O)c2cccc(Oc3ccccc3)c2)C1 (centres undefined) | 14 | nt | 118 | 106
COC(=O)c1cc(OC)nc(OC)c1 | -8 | 113 | 111 | 97
CC(C)NC(=O)CNCc1ccc(N2CCCCC2)cc1 | 17 | nt | 86 | 90
Cc1ccc2nc(-c3ccccc3)cc(C(=O)NCc3ccccc3)c2c1 | nt | 109 | 105 | 88
CCN1C(=O)/C(=C/N(C)c2ccccc2)OC1=S | nt | 115 | 100 | 98
CCSc1nc(-c2ccccc2)c(C#N)c(=O)[nH]1 | -10 | 96 | 119 | 67
COc1ccc2[nH]cc(CCNC(=O)Nc3ccccc3)c2c1 | -16&-6 | 103&104 | 100 | 77
COC(=O)c1cc(Br)ccc1OC(=O)/C=C/c1ccccc1 | -3 | nt | 94 | 88
CCC(=O)N1CCc2cc(S(=O)(=O)CCC(=O)Nc3nccs3)ccc21 | 0 | 103 | 91 | 99
Cc1ccc(CN(Cc2ccco2)C(=O)c2ccc(Cl)cc2Cl)cc1 | 8 | 103 | 94 | 94
COc1ccc(C2CC(=O)N(Cc3ccc(F)cc3)c3ccccc3S2)cc1OC (centres undefined) | -17 | 109 | 110 | 84
Cc1cccc(CSc2ncccc2C(=O)O)c1 | nt | 99 | 128 | 86
CC(C)c1ccc(CNC2CC2)cc1 | -18 | nt | 82 | 90
O=S(=O)(NC1CCCC1)c1ccc(-c2cc(C(F)(F)F)on2)o1 | -11 | 100 | nt | nt
CCOC(=O)CC1=CC(=O)N(CC(=O)Nc2ccc3c(c2)OCCO3)c2cc(C)c(C)cc2N1 | -33 | 109 | nt | nt
Cc1ccc(S(=O)(=O)Nc2cccc(-c3cn4ccccc4n3)c2)cc1[N+](=O)[O-] | -26 | 97 | nt | nt
